Autofluor counter = compound fluorescence in toxin protease inhibitor counterscreen | compound autofluorescence counterscreen, microsphere flow cytometry; stronger effect = higher value | fluorescence intensity (no concentration beside the values) | 360,000 compounds, 3.1% hits | AID 624483;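 active = at least 3 SD above the mean of all compounds, about 16000 in these data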;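 also: 100 nL of 1 mM stock went into each well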
Active calls of the source: *.

SMILES	Autofluor counter
CC(=O)Nc1cccc(-c2csc(C(O)c3cccc(Cl)c3)n2)c1 (centres undefined)	3064
CCN(CC)C(=O)C1=C(C)N(CCCOC)C(=O)C(CC(=O)NC2CCCCC2)C1 (centres undefined)	3166
CCNC(=O)C1CCCN(C(=O)c2cccc(Cl)c2)CC1 (centres undefined)	3851
CC(=O)Nc1ccc(NC(=O)C2(C)Cc3c(-c4cccc(C(N)=O)c4)ccnc3O2)cc1 (centres undefined)	3812
Cc1nc2ccc(C(=O)N3CCC(O)(Cc4ccccc4)CC3)cn2c1N(C)C(=O)CCc1ccccc1	2888
Cc1ccc(S(=O)(=O)N2C[C@H]3[C@H]4C(=O)N(Cc5ccccc5)C(=O)[C@H]4CC(=O)[C@H]3[C@@H]2c2ccccc2)cc1	4235
O=S1(=O)CC(N2CCSCC2)CN1Cc1cn(Cc2ccc(F)cc2)nn1 (centres undefined)	4062
Cc1ccccc1-c1cnc2c(c1)C(=O)N([C@H](C)CO)C[C@@H](C)[C@H](CN(C)C(=O)c1ccncc1)O2	3872
O=C(CC1SC(N2CCCC2)=NC1=O)Nc1ccc(C(=O)NCc2ccccc2F)cc1 (centres undefined)	3700
CC1(C(=O)NS(=O)(=O)c2cccc(Cl)c2)CCN1C(=O)CCc1ccccc1 (centres undefined)	3674
CC(=O)Nc1cccc(-c2ccnc3c2CC(C(=O)Nc2ccc(F)c(Cl)c2)O3)c1 (centres undefined)	3672
COc1cccc(C(=O)N2CCCc3ccccc32)c1OC	2943
COc1ccc(C#CC2=CC(=O)CC(C)(C)C2)cc1	3598
CC(=O)NC(c1cccc(F)c1)c1nc(-c2ccc3ccccc3c2)cs1 (centres undefined)	3753
CC1(C(=O)NCc2ccccc2)CCC(=O)N1CC(F)(F)F (centres undefined)	6294
CCCCN(C)c1c(C)nc2ccc(C(=O)NCc3cccs3)cn12	3438
COc1cccc(C(=O)c2ccccc2NC(C)=O)c1	3721
O=C(NC1CCCC1)C1c2ccccc2OCC(=O)N1Cc1ccc2c(c1)OCO2 (centres undefined)	4157
C[C@H]1CN([C@@H](C)CO)C(=O)CCCn2nncc2CO[C@@H]1CN(C)Cc1cccc(O)c1	4047
Cc1ccc(C=C(C#N)C(=O)c2ccccc2)cc1	4044
C[C@@H]1CCCCO[C@H](CN(C)S(=O)(=O)c2cn(C)cn2)[C@@H](C)CN([C@H](C)CO)C(=O)c2cc(NC(=O)c3ccncc3)ccc2O1	3690
NC(=O)c1c(N)[nH]c(C(=O)c2ccccc2)c1-c1ccncc1	4323
CC(C)(C)n1nnnc1C(c1cc2ccccc2o1)N1CCC2(CC1)C(=O)NCN2c1ccccc1 (centres undefined)	5692
C[C@@H]1ON(C)[C@H]2C[C@H]3c4[nH]c5ccc(-c6ccc7c(c6)OCO7)cc5c4CCN3C(=O)[C@@H]12	3808
Cn1nc(C(C)(C)C)cc1C(=O)N1CCCCC1c1cc(C(=O)Nc2ccccc2Cl)no1 (centres undefined)	2892
C[C@H]1CN([C@@H](C)CO)C(=O)CCCn2nncc2CO[C@H]1CN(C)S(=O)(=O)c1ccc(C#N)cc1	3620
COCCNC(=O)c1sc(=O)n(Cc2ccc(SC)cc2)c1C	5276
C[C@@H]1CN([C@H](C)CO)C(=O)CCCn2cc(nn2)CO[C@H]1CN(C)C(=O)C1CC1	2850
O=C(OCc1ccccc1)N1CCC2CC1c1cc(N3CCNCC3)ccc12 (centres undefined)	2961
CCOC(=O)C1C(=O)CC(=O)C(C(=O)OCC)C1c1ccc(O)cc1 (centres undefined)	2935

Reprinted at random: 3 entries already listed
SMILES	Autofluor counter
COCCNC(=O)c1sc(=O)n(Cc2ccc(SC)cc2)c1C	5276
CCOC(=O)C1C(=O)CC(=O)C(C(=O)OCC)C1c1ccc(O)cc1 (centres undefined)	2935
CC(C)(C)n1nnnc1C(c1cc2ccccc2o1)N1CCC2(CC1)C(=O)NCN2c1ccccc1 (centres undefined)	5692

(more compounds)
SMILES	Autofluor counter
COc1ccc(OC(=O)N(C)C[C@@H]2OCc3cn(nn3)CCCC(=O)N([C@H](C)CO)C[C@H]2C)cc1	6245
CC1=C(C(=O)N2CCCCCC2)CC(CC(=O)NC2CCCC2)C(=O)N1Cc1ccc(C(C)(C)C)cc1 (centres undefined)	6351
O=S1(=O)N[C@@H](Cc2ccccc2)COc2cccc(N3CCC[C@@H]3CO)c21	4055
CCOC(=O)C1(C)CCCCCN1C(=O)c1ccc(Cl)nc1 (centres undefined)	3550
NC(COCc1ccccc1)c1csc(Nc2ccc(C(=O)NCCO)cc2)n1 (centres undefined)	3138
COc1ccc(Sc2ccc(NC(=O)c3cccc(Cl)c3)cc2C#N)cc1	3442
CCOC(=O)C1CCCN(C(=O)c2ccc3c(c2)C(C)(C)CCC3(C)C)CC1 (centres undefined)	2921
Cc1cc(C(=O)N2CCCC(C)(C(=O)NS(=O)(=O)C3CC3)C2)nn1C(C)(C)C (centres undefined)	3763
COc1cc(/C=C/C(=O)OCC(=O)N2CCc3ccccc32)cc(OC)c1OC	3553
Nc1ncnc2c1ncn2[C@@H]1O[C@H](C(=O)NCCc2ccc(F)cc2)[C@@H](O)[C@H]1O	5734
Cc1noc(C)c1S(=O)(=O)NC(=O)C1(C)CCN1C(=O)C1(c2ccc(Cl)cc2)CC1 (centres undefined)	3807
CCc1ccc2c(c1)NC(=O)C2(C)Cc1ccc(OC(F)(F)F)cc1 (centres undefined)	2901
C[C@@H]1CN([C@@H](C)CO)C(=O)CCCn2nncc2CO[C@@H]1CN(C)C(=O)Nc1ccc(-c2cccs2)cc1	3862
Cc1cccc(C)c1Cn1c(C)c(C(=O)NCCC#N)sc1=O	3949
COC(=O)c1ccc(CNC(=O)c2cc(S(=O)(=O)NCc3ccccc3)ccc2C)cc1	2899
COc1ccc(CN2CCC[C@]3(N[C@H](c4ccccc4)[C@@H]4C(=O)N(Cc5ccccc5)C(=O)[C@@H]43)C2=O)cc1	4141
c1ccc(-c2cc3nc(NCc4ccc5c(c4)OCO5)ccn3n2)cc1	3256
CCCS(=O)(=O)NC(=O)C1(C)CCCN(C(=O)c2cc(OC)ccc2Br)C1 (centres undefined)	3968
O=C(c1ccc(N2C(=O)CCC2=O)cc1)N1CCCSC1=Nc1ccccc1	2832
O=NN(C(=O)NC1CCC(C(=O)O)CC1)C1CCC(C(=O)O)CC1 (centres undefined)	6453
COCC(C)NC(=O)C1CC(=O)N(CCc2ccc(F)cc2)C1 (centres undefined)	3634
COc1ccc(Cl)cc1-c1cc(C(=O)NCc2ccc(C(F)(F)F)cc2)[nH]n1	2877
C[C@H](CO)N1C[C@H](C)[C@@H](CN(C)S(=O)(=O)c2ccccc2C#N)OCc2cn(nn2)CCCC1=O	3043
CCc1nc2ccc(C(=O)Nc3ccc4c(c3)OCC(=O)N4)cn2c1N(C)C(=O)C1CCCCC1	2961
CCCC(=O)N1CCC1(C)C(=O)Nc1cccc(F)c1 (centres undefined)	3010
COc1cc2c(cc1OC)C(=O)C(Br)CC2 (centres undefined)	3673
CCc1ccc([C@@H]2CC(=O)[C@@H]3CN(S(=O)(=O)c4ccc(C)cc4)[C@H](c4ccc(Cl)cc4)C[C@@H]3N2S(=O)(=O)c2ccc(C)cc2)cc1	6286
c1ccc(CN2CCC3CC2c2ccc(N4CCOCC4)cc23)cc1 (centres undefined)	3662
CCc1nc(N2CCN(C(=O)CCCl)CC2)c2c3c(sc2n1)CCCC3	2928
O=C(COC(=O)c1cccc(S(=O)(=O)N2CCCC2)c1)Nc1cccc(Br)c1	3561

Rewritten field by field: four of the compounds above.
O=C(COC(=O)c1cccc(S(=O)(=O)N2CCCC2)c1)Nc1cccc(Br)c1
- Autofluor counter: 3561

C[C@H](CO)N1C[C@H](C)[C@@H](CN(C)S(=O)(=O)c2ccccc2C#N)OCc2cn(nn2)CCCC1=O
- Autofluor counter: 3043

CCc1ccc([C@@H]2CC(=O)[C@@H]3CN(S(=O)(=O)c4ccc(C)cc4)[C@H](c4ccc(Cl)cc4)C[C@@H]3N2S(=O)(=O)c2ccc(C)cc2)cc1
- Autofluor counter: 6286

CCc1nc(N2CCN(C(=O)CCCl)CC2)c2c3c(sc2n1)CCCC3
- Autofluor counter: 2928

(more compounds)
SMILES	Autofluor counter
O=[N+]([O-])c1ccccc1NS(=O)(=O)c1ccccc1	3988
CC(=O)N1CCc2c(sc(NC(=O)c3ccc([N+](=O)[O-])o3)c2C(N)=O)C1	3048
CC(C)(C)S(=O)N1Cc2cc(C(=O)N[C@@H]3CCN(Cc4ccccc4)C3)nc(-c3cccc(-c4cc5ccccc5o4)c3)c2[C@@H]1CCO (some centres undefined)	6483
CC(C)C[C@H]1CNC(=S)N1C[C@H]1CCCN1C[C@H](Cc1ccc(O)cc1)N1C[C@H](Cc2ccc(O)cc2)N(CCc2ccccc2)C1=S	6011
CC(=O)Nc1cc(-c2cccc(C(=O)NCCO)c2)cn2c(-c3ccc(F)c(Cl)c3)cnc12	3189
O=C(COC(=O)c1cc(S(=O)(=O)N2CCOCC2)ccc1Cl)Nc1ccc(Cl)cn1	3842
CCCCn1nnnc1C(c1cc2ccccc2o1)N1CCCCC1 (centres undefined)	6000
Cn1ccc2c(-c3ccccc3F)cc3c(c21)C1CCC3C1 (centres undefined)	5841
Cc1ccc(-c2nc3ccc(Br)cn3c2Cc2ccsc2)cc1	5688
COC(=O)c1ccc(CNC(=O)CC[C@H]2O[C@@H](n3cc(C)c(=O)[nH]c3=O)C[C@@H]2O)cc1	4416

Structural class: those above containing a nitro group on carbon (2)
SMILES	Autofluor counter
O=[N+]([O-])c1ccccc1NS(=O)(=O)c1ccccc1	3988
CC(=O)N1CCc2c(sc(NC(=O)c3ccc([N+](=O)[O-])o3)c2C(N)=O)C1	3048

Continuation:
SMILES	Autofluor counter
CCc1ccc(/C=C2\SC(=S)N(CCCC(=O)NCCCN3CCOCC3)C2=O)cc1	3624
CCCCNC(=O)CNC(=O)c1nn(-c2ccc(OC)c(OC)c2)c(=O)c2ccccc12	3982
CC(=O)Nc1ccc(C(=O)N2CCCC(c3cc(C(=O)NCc4cccnc4)no3)C2)cc1 (centres undefined)	3892
Cc1ccccc1CN1C(=O)C(C)Sc2ccc(-c3ccco3)cc21 (centres undefined)	3861
CCCCCCn1cc(CN2CC(N3CCN(Cc4cccc(C)c4)CC3)CS2(=O)=O)nn1 (centres undefined)	5493
CC1CCCC(NC(=O)CSc2nnc(-c3cccnc3)o2)C1C (centres undefined)	5162
FC(F)(F)c1cccc(-c2cncc(N3CCN(CCN4CCCC4)CC3)n2)c1	3396
CC(C)CC1OC(C(C)C)Cc2[nH]c(=S)[nH]c(=O)c21 (centres undefined)	5898
OC[C@@H]1CN(Cc2cccs2)C[C@H](n2cnc3c(N4CCOCC4)ncnc32)O1	3968
O=C(CC[C@H]1O[C@@H](n2ccc(=O)[nH]c2=O)[C@H](O)[C@@H]1O)N[C@H](Cc1ccccc1)C(=O)NCC1CCCO1 (some centres undefined)	6016
CC(=O)NC(c1cccc(F)c1)c1nc(-c2cccc(C(=O)O)c2)cs1 (centres undefined)	3158
CCc1nc2c(OCC(=O)C(C)(C)C)cccn2c1N(C=O)CC(=O)N(C)C	3854
OC[C@H]1O[C@@H](c2nc3ccc(-c4nc(-c5cccs5)no4)cc3[nH]2)C[C@@H]1O	3783
COc1cccc(C2=CC(=O)CC(C)(C)C2=O)c1	3642
O=C(OCC(=O)N1CCCCCC1)c1cc(S(=O)(=O)N2CCOCC2)ccc1F	3566
CCOC(=O)C1=C[C@@H](C(C)C)N(S(=O)(=O)c2ccc([N+](=O)[O-])cc2)[C@H]1c1ccccc1	4308
CCCCC[C@@H](C)N1C[C@@H](COCc2ccccc2)Oc2cc(N3CC[C@@H](O)C3)ccc2S1(=O)=O	5959
Cc1ccc(C)c(NC(=S)N2CCC(C(=O)c3ccc(F)cc3)CC2)c1	3787
CCOc1ccccc1NCN1C(=O)c2ccccc2C1=O	3774
CCN(C(=O)CN1C(=O)NC2(CCCC2)C1=O)c1nc2c(C)cccc2s1	3818
CNc1cncc(-c2cccc(OC)c2F)n1	3594
CC(=NO)C1(C)CC=CCC1CO (centres undefined)	4051
COC(=O)[C@]12CCCCC=C1N(Cc1ccccc1)C(=O)[C@H](CC(=O)NCc1cccc(C(F)(F)F)c1)C2	6038
Cc1cc(C(=O)N2CCC2(C)C(=O)NS(=O)(=O)c2ccc(Cl)cc2)nn1C (centres undefined)	2905
CCCC(=O)N1CCC1(C)C(=O)Nc1ncc(C(=O)OC)s1 (centres undefined)	4119
CCN1CCCSC1=S	3789
CCOC(=O)C1=C[C@@H](C(C)C)N(S(=O)(=O)c2ccc(C)cc2)[C@H]1c1ccc(C(F)(F)F)cc1	6232
CC(=O)c1cccc(-c2ccnc3c2CC(C(=O)Nc2ccccc2)O3)c1 (centres undefined)	4591
CC1=NN(c2ccccc2)C(=O)C1CCC#N (centres undefined)	3307
C=CCNc1ncnc2c1ncn2[C@H]1CN(Cc2ccco2)C[C@@H](CO)O1	3927
Cc1ccc(S(=O)(=O)NC(=O)C2(C)CCN2C(=O)COc2ccc(Cl)cc2)nc1 (centres undefined)	3658
CC(=O)c1ccc(OC2(C)CCN(Cc3cccn3-c3nccs3)C2)cc1 (centres undefined)	3882
CN(CCc1ccccc1)C(=O)c1[nH]c(C(F)(F)F)nc1-c1ccccc1	5611
CCCN(CCC)Cc1cc(=O)oc2cc(C)c(C)cc12	5491
O=S1(=O)N[C@@H](Cc2ccccc2)COc2cc(N3CCC[C@H]3CO)ccc21	5114
CCCNC(=O)c1cc(C2CCCCN2C(=O)c2ccc(OC)cc2)on1 (centres undefined)	3837
OC(c1ccccc1)(c1ccccc1)C1CCN(CCCOc2cccc(OC(F)(F)F)c2)CC1	6071
CN(C)c1ccc(-c2ccnc3c2CC(C)(C(=O)NCC2CCOCC2)O3)cc1 (centres undefined)	3776
O=C(c1ccc(Cl)c(Cl)c1)N1CCC(=O)N([C@H](COCc2ccccc2)Cc2ccccc2)CC1	6330
CC(C)(C)NC(=O)C1c2ccccc2OCC(=O)N1C1CC1 (centres undefined)	5483

The list is partial, so the mix of outcomes need not match the whole.
